T cruzi inh: blocks replication of Trypanosoma cruzi; T. cruzi beta-gal in NIH3T3, luminescence, 90 h; hit rate 1.4% among 300,000; inhibition, % (no concentration beside the values);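 active = mean inhibition across valid replicates above about 55%, limit read from the data; inconclusive = mean below that limit but half or more replicates reach it; inactive = mean below it, under half of replicates reach it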;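 note: signal also drops with host cell toxicity which is not excluded here; 0% = plate median of DMSO wells and 100% = zero luminescence signal; higher percent means less beta-gal luminescence so fewer parasites; stock transfer was 50 nL into about 50 µL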
RanGTP-Impb inh: inhibitors of RanGTP-importin-beta interaction, primary screen, biochemical, FRET, CFP-Ran, YFP-importin-beta, homogeneous. inhibition, % (test concentration not listed). AID 2216. cell-free CFP-Ran/YFP-importin-beta FRET ratio. hit rate 1.1% among 300,000;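 active = most replicates above 15%; inconclusive = exactly half above 15%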;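 note: 0% = DMSO wells and 100% = Ran loaded with GDP instead of GTP; wells of about 40 µL received 100 nL stock; the first replicate is given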
A1 inh: inhibitors of the anti-apoptotic protein A1, read as caspase activation; hit rate 0.066% among 330,000; caspase activation, % (no concentration beside the values); MEF A1-2A-BIM cells, Caspase-Glo 3/7 luminescence, 3 h; percent of clofoctol response, vehicle zero; AID 2462;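 active = over half of replicate activation scores above 10%, or exactly half above 10 with the replicate mean above 10; inconclusive = replicate mean below 10 yet half the replicates above 10; inactive = over half of replicates below 10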;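 note: wells of about 30 µL received 50 nL stock; many hits fall short of the cut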
Vif A3G: inhibitors of Vif binding to APOBEC3G peptide, primary screen, biochemical, TR-FRET, GST-Vif 1-94, biotin-A3G peptide, dose response retest (AID 1117319); TR-FRET GST-Vif / biotin-A3G peptide binding; higher % means a stronger effect; test concentration not given here; strong numbers were not always called active; one-dose inhibition, %; IC50 in µM for titrated hits; hit rate 0.57% among 260,000;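 active = above the screen mean plus three standard deviations and confirmed in dose response; inconclusive = results disagree or hit not tested in dose response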;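 note: Vif residues 1-94 fused to GST binding biotinylated APOBEC3G peptide 110-148; 0% = full assay without inhibitor and 100% = GST in place of GST-Vif; retest series ran down from 100 µM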
Calb FLC: C. albicans growth modulation with fluconazole | AID 1979 | C. albicans CaCi-2 (fluconazole-resistant clinical isolate) + fluconazole, Alamar Blue growth, 48 h | growth inhibition, % (no concentration beside the values) | hit rate 0.57% among 300,000;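 active = most replicates above 75%; inconclusive = exactly half above 75%; inactive = most below 75%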;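 note: all wells also contain fluconazole at 8 µg/ml as a sub-toxic cotreatment; 0% = median of DMSO wells and 100% = median of geldanamycin control wells; wells of about 8 µL received 7.5 nL stock; the first replicate is given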
Beta cell apopt: blocks beta cell apoptosis; protection from apoptosis, % (concentration not given with the values); hit rate 0.8% among 300,000; INS-1E cytokine-induced death, ATP luminescence, 48 h; percent of positive-control rescue, neutral wells zero;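 active = all replicates at 75% or more, or half of them and the mean; inconclusive = half reach 75% but not the mean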;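 note: 0% = cytokine-treated negative control wells and 100% = positive control rescue; higher means more ATP so stronger rescue from cytokine killing; wells of about 40 µL received 100 nL stock; the first replicate is given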
LANA-H2A inh: blocks KSHV LANA binding to histone H2A/H2B; hit rate 0.6% among 320,000; cell-free LANA-H2A/H2B peptide, fluorescence polarization; inhibition, % (no concentration beside the values); in the data active = inhibition mostly above about 10%, no sharp cut-off; inactive = mostly below about 6.7%;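 note: stock transfer was 7.5 nL into about 10 µL; 0% = median of vehicle wells and 100% = median of positive control wells; one replicate is shown; the record names a cut of 25% in any replicate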
MLL AF4-AF9 inh: MLL-AF4/AF9 protein interaction inhibition. AlphaScreen, biotin-AF4 peptide binding to FLAG-AF9. inhibition, % at 10 µM. hit rate 0.47% among 350,000;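 active = every replicate reaching a set inhibition limit, whatever the replicate mean, cut at about 25% in these data; inconclusive = mean inhibition reaches that limit but some replicates miss it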;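 note: 0% = plate neutral control median and 100% = total signal loss; the record names both 10 and 1 µM as test concentration; the first replicate is given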
Target sequence (P42568 whole entry, looked up): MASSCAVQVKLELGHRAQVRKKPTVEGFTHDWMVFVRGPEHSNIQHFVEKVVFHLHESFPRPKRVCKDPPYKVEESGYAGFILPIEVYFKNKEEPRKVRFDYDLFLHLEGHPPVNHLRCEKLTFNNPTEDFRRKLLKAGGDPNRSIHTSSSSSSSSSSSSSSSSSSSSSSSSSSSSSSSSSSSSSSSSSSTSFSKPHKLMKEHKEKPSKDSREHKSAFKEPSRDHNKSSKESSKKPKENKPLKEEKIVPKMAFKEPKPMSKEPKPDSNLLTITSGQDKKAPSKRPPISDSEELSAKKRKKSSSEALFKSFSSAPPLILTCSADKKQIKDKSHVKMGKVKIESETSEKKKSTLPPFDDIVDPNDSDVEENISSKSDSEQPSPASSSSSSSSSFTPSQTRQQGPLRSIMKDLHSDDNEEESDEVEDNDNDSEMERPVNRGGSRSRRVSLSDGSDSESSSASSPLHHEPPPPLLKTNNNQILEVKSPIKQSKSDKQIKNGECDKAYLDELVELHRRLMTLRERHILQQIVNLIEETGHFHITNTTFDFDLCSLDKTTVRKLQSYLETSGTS
Starred values were filed as active, the others as inactive; ? = inconclusive; · = not tested or not shown. Compounds were not picked by outcome; any-hit rate near 4.3%.

SMILES	T cruzi inh	RanGTP-Impb inh	A1 inh	Vif A3G	Calb FLC	Beta cell apopt	LANA-H2A inh	MLL AF4-AF9 inh
O=C(c1cccc(Cl)c1)N1CCN(c2ncccn2)CC1	-21	0.3	-0.3	4%	-1	-5	-2.4	-2.8
COc1c2c(nc3occc13)C(CC=C(C)C)(OC)C(=O)C=C2 (stereo not drawn)	-7	2.5	2.4	-6%	-9	-5	-1.4	0.3
CC(=O)c1ccc(NC(=S)N2CCCC2)cc1	-11	1.4	1.1	·	-6	-1	-5.2	-0.5
O=C(CCCn1nnnc1CN1CCOCC1)N1CCC(c2ccccc2Cl)C1 (stereo not drawn)	-18	0.2	-0.2	3%	-8	-3	3.3	1.2
CC(OC(=O)C1CC1)C(=O)Nc1ncc(Cl)cc1Cl (stereo not drawn)	·	·	0.4	-9%	·	0	-397	3.4
CC(C)C1N(C(=O)CN2CCCCC2)CCN1S(=O)(=O)c1ccccc1 (stereo not drawn)	-3	1.4	0.5	·	-7	-4	0.5	1.5
CCOc1ccc(C(C)NC(=O)C2CCCC2)cc1 (stereo not drawn)	-5	0.9	-1.3	-10%	-2	-6	·	-9.5
CC1CCN(Cc2nnnn2CCCC(=O)NCCN2CCOCC2)CC1	-3	-0.9	-0.2	-8%	2	-2	-1.8	-0.2
COc1ccc(COn2nnc3ccc(S(=O)(=O)N4CCOCC4)cc32)cc1F	-13	-1.4	-0.6	-1%	-3	1	-1.7	-7.4
O=C(COC(=O)c1ccc(Cl)nc1)Nc1cc(S(=O)(=O)N2CCOCC2)ccc1Cl	·	·	0.8	·	·	1	1.6	0.6
COC(=O)c1ccccc1NC(=O)CSc1[nH]c(=O)cc(C)c1C#N	5	0.2	-0.7	·	22	-3	-2.9	-1.0
CC(c1ccccc1)C1NC(C(=O)O)CS1 (stereo not drawn)	12	-5.7	1.8	0%	-3	-9	-1.3	·
Cn1c(=O)c2c(nc(N3CCOCC3)n2C/C=C/c2ccccc2)n(C)c1=O	-12	0.0	0.0	?	6	3	-1.8	3.9
Brc1ccc(OCCCCCN2CCOCC2)cc1	19	0.8	2.1	17%	-2	-4	2.3	-0.9
CCOc1ccc(CCNC(=O)COC(=O)c2cccnc2SC)cc1OCC	1	5.5	1.3	5%	-5	0	3.3	-7.6
CCOC(=O)C(C)Oc1cccc2c(=O)n(CC(=O)NCCc3ccc(OC)c(OC)c3)ccc12 (stereo not drawn)	-17	?	0.4	-4%	0	3	1.0	-1.9
c1ccc(CN2CCN(CCOCCOc3ccc4c(c3)CCC4)CC2)cc1	41	1.5	0.8	-1%	-1	2	1.1	11
CCN1CCN(CC(=O)N2N=C(c3ccc(OC)cc3)CC2c2ccc(OC)cc2)C(=O)C1=O (stereo not drawn)	4	-2.0	-0.1	-3%	-6	3	-5.2	0.9
COc1ccc(C2CC(=O)C(CS(=O)(=O)c3ccccc3)C(=O)C2)cc1 (stereo not drawn)	-4	6.2	1.1	·	19	0	2.5	0.6
COc1cc(CCC(=O)OCC(=O)NC2CCCC(C)C2C)cc(OC)c1OC (stereo not drawn)	-12	-1.9	0.4	21%	-13	-3	-1.1	-1.8
CCOC(=O)c1c(C)[nH]c(C(=O)OCC(=O)c2c(N)n(C)c(=O)n(C)c2=O)c1C	-6	-0.8	-0.9	-8%	-1	-3	-3.6	·
COCCN(C(=S)Nc1ccccc1C)C(C)c1ccco1 (stereo not drawn)	-10	2.0	-0.4	7%	0	-12	0.4	7.8
CN(Cc1c(F)cccc1Cl)C(=O)CNC(=O)c1ccc2c(c1)OCO2	2	1.8	-0.4	-7%	9	-6	-2.5	34*
O=C(Nc1ccc(Br)cn1)c1coc(=O)c(Br)c1	-11	9.2	-0.7	13µM*	5	-7	2.5	-4.4
CCN=c1scc(-c2ccccc2)n1/N=C/c1ccccn1	-31	-5.1	-3.5	·	20	39	-6.0	·
Cc1nn(S(=O)(=O)c2ccc(F)cc2)c(C)c1S(=O)(=O)N1CCCCC1	-21	1.2	-1.3	·	-7	·	-2.0	-1.8
CCN(CC)S(=O)(=O)c1cc(NC(=O)CCNC(=O)c2ccccc2Cl)ccc1C	2	-1.1	1.0	?	0	·	2.7	·
O=C(Cn1c(C(F)(F)F)nc2ccccc21)NCCCN1CCOCC1	-6	-3.3	1.1	9%	2	-3	-1.7	·
O=C(CN1C(=O)C2CCCCC2C1=O)OCc1nnc(-c2ccccc2)o1 (stereo not drawn)	-10	?	-0.4	2%	3	-1	·	-0.9
COc1cccc2c(=O)c3cccc(N)c3[nH]c12	0	127*	-0.2	·	-8	-3	1.2	-2.1
O=C(Nc1ccccc1N1CCOCC1)C1CCN(S(=O)(=O)c2ccccc2F)CC1	-8	9.2	1.5	·	-13	-3	5.3	·
CC(C)(C)c1ccc(OCCSc2nc3ccccc3n2CC(=O)O)cc1	-6	3.2	1.2	1%	6	-8	-0.5	-2.0
COc1cccc(NC(=O)CNC(=O)c2ccc(F)cc2)c1	-14	-0.7	-0.9	-5%	-1	2	-1.5	·
O=C(CCc1nnc(COc2ccccc2)o1)NCc1ccccc1C(F)(F)F	-2	2.8	-0.4	-6%	-6	-3	4.4	-3.4
CCNC(=O)CSc1nnc(-c2ccc(OC)cc2)n1CC(C)C	2	-1.0	-0.4	1%	-9	-3	4.1	·
O=C(c1cccc(Cl)c1)N1CCN(Cc2c[nH]c3ccccc23)CC1	-22	?	-0.3	2%	-4	·	-1.5	1.3
CCOCc1nnc(NC(=O)C2CCN(C(=O)C3CC(=O)N(c4ccc(C)cc4)C3)CC2)s1 (stereo not drawn)	-11	9.4	-0.7	·	-9	0	2.5	-15
Cc1ccc(NS(=O)(=O)c2ccc(-n3cccn3)cc2)nc1	-7	3.9	0.6	·	-11	0	2.1	-0.4
CCN(Cc1ccccc1)S(=O)(=O)c1ccc(OC)c2ncccc12	10	-1.8	-0.1	·	2	-4	-4.4	-27
CCc1ccc(NC(=O)C2CCN(S(=O)(=O)c3c(C)noc3C)CC2)cc1	20	-1.2	0.0	-3%	2	·	3.9	-0.6
O=c1[nH]c(/C=C/c2ccc3c(c2)OCO3)c([N+](=O)[O-])c(=O)[nH]1	-12	-1.0	0.6	11%	1	-3	-0.2	·
O=C(Cn1cc2c(n1)CCCC2)NCc1cccc(Cl)c1	15	2.1	-0.4	7%	-10	-2	-0.9	-1.9
Cc1c(O)c(CN(C)C)cc2c1oc(=O)c1ccccc12	4	-3.8	-0.3	-5%	0	6	3.4	4.3
CCN(c1ccccc1)S(=O)(=O)c1ccc(N)c(OC)c1	3	4.7	0.2	0%	0	13	-2.9	·
Cc1cccc(-n2c(=O)cc(N3CCN(c4ccc(F)cc4)CC3)[nH]c2=O)c1	-7	?	1.0	63%	4	-1	-5.8	-4.5
COc1ccc(Cl)cc1NC(=O)CN(C)CC(=O)Nc1ccccc1C(F)(F)F	10	-3.1	0.2	-5%	4	-4	-1.0	-0.7
COCCn1nnnc1CN1CCSCC1	-6	-2.8	-0.3	-8%	-33	-5	0.3	-1.1
CC(=O)OCc1nc2sc(C)c(C)c2c(=O)[nH]1	-7	1.0	-0.5	-10%	-5	-2	2.2	·
COc1ccc2c(c1)CCc1c(C(=O)NCc3ccc(F)cc3)noc1-2	8	3.6	-0.2	1%	8	-4	1.7	1.9
CCN(CC)CCN(C(=O)c1ccc([N+](=O)[O-])cc1)c1nc2ccc(OC)cc2s1	43	3.7	1.0	5%	-11	-3	-2.0	-5.3
COc1ccc(C=O)cc1OC1C=CCCC1 (stereo not drawn)	-8	2.7	0.2	-4%	-5	4	4.1	-4.4
CC(C)C[C@H](NC(=O)[C@@H]1Cc2ccccc2CN1C(=O)OC(C)(C)C)C(=O)NCC1CCC(C(=O)O)CC1 (stereo partly drawn)	0	-0.1	0.6	-2%	-2	-6	3.5	-13
COc1ccc(NS(=O)(=O)c2cn(C)cn2)cc1OC	-7	2.7	0.7	·	-4	-5	1.3	-0.5
CCOc1ccccc1N(C(C)=O)S(=O)(=O)c1ccc(Cl)cc1	-1	-2.7	-0.1	-1%	20	2	-9.5	2.6
Cc1cc(NC(=O)CN2C(=O)NC(c3ccccc3)(c3ccc(C)c(C)c3)C2=O)no1 (stereo not drawn)	·	·	0.4	-13%	·	3	-6.0	2.0
COCCCn1c(SCC(=O)NC(C)C)nnc1-c1ccccc1	11	-0.9	0.2	?	·	2	-3.8	·
C#CCn1c(=NC(=O)c2ccco2)sc2cccc(Cl)c21	2	2.0	0.6	-13%	-7	8	-2.9	31*
CC(=O)N=C1SC2CS(=O)(=O)CC2N1c1cccc(Cl)c1Cl (stereo not drawn)	-16	1.7	0.1	-3%	-7	-4	1.3	·
Cc1ccc(-n2cnnn2)c2cccnc12	-11	5.6	-0.2	3%	10	-1	-5.4	·
Cc1nc(S/C(=C\c2ccc(OCc3ccccc3Cl)cc2)C(=O)O)n[nH]1	·	·	1.0	-3%	·	-4	-5.2	·

Later entries
SMILES	T cruzi inh	RanGTP-Impb inh	A1 inh	Vif A3G	Calb FLC	Beta cell apopt	LANA-H2A inh	MLL AF4-AF9 inh
CCn1c(-c2cccc(S(=O)(=O)N3CCCC3)c2)n[nH]c1=S	-14	-1.8	1.0	·	4	2	0.1	-3.6
CCCOc1ccc(C(=O)NCc2ccco2)cc1	8	1.3	0.4	1%	-2	-7	-0.7	·
c1ccc(-c2nnc3ccc(N4CCCC4)nn23)cc1	9	7.3	0.1	-1%	0	-1	3.4	-1.4
CCOc1ccc(NS(=O)(=O)c2ccc(-c3coc(C)n3)cc2)cc1	-17	3.8	0.4	·	-1	2	3.1	-1.2
Cc1ccccc1C(=O)Nc1ccc(S(=O)(=O)Nc2onc(C)c2C)cc1	-4	?	0.1	6%	-2	-6	8.3	-0.9
Cc1sc2ncn(CC(=O)NCCCC(=O)N3CCCCC3)c(=O)c2c1C	-10	4.1	0.5	4%	-4	6	3.4	-0.5
CC(C)(C)c1ccc(C(=O)NNC(=O)c2cccc(-n3cnnn3)c2)cc1	11	-0.7	0.4	22%	-1	-4	1.0	-3.8
N#CC1=C(N)SC(C(=O)c2ccccc2)C1c1cccs1 (stereo not drawn)	-4	9.1	-0.3	32%	7	-13	-6.6	·
CN1CCN(C(=O)c2ccccc2Nc2ccc(SC(F)F)cc2)CC1	-6	19*	1.7	4%	-6	3	2.9	6.2
Cc1ccccc1-n1c(SC(C)C(=O)N2CCN(C)CC2)nc2ccccc2c1=O (stereo not drawn)	7	3.4	0.1	1%	-10	1	4.8	-1.1
Cc1cccc(NC(=O)c2cc3ccccc3nc2C)c1	-5	0.5	-0.7	·	3	1	0.5	-1.9
COCCOC(=O)C1=C(C)NC(=O)N(C(C)=O)C1c1ccc(Cl)cc1 (stereo not drawn)	-1	0.3	0.4	-4%	0	·	-1.5	·
Cn1c(SCC(=O)Nc2ccccc2[N+](=O)[O-])nnc1C(F)(F)F	-4	1.8	-0.7	9%	3	0	7.5	-5.7
CN(c1ccccc1C(=O)N1CCN(c2cccc(Cl)c2)CC1)S(C)(=O)=O	-19	-0.5	-0.9	-1%	10	-3	3.8	·
OCC[C@@H]1C[C@@H](O)[C@H](O)[C@@]2(CCCO2)O1	-11	-1.5	-0.2	·	-2	-1	1.1	1.9
